MARV entry inh: qHTS for inhibitors of binding or entry into cells for Marburg Virus; Marburg virus pseudotyped entry inhibition, cell reporter; control for the full effect not named in the record; about a third of the inactives were read at about 46 µM; Potency, µM (series often up to 37.8 µM), for inactives: at the highest dose activity change, negative = inhibition, most hits filed as inhibitors; 300,000 tested, 1.8% active; AID 540276, 2011; active = well fitted inhibition curve with a large enough effect; inconclusive = small, poorly fitted or top-dose-only effect, or effect the other way; inactive = flat fitted curve, though single readings scatter; tested in HEK293 cells; about a fifth of its hits are not listed in these tables; further: on the % scale 0 is the no-effect control and ±100 the full control effect; luciferase read-out
2A StopGo: High Throughput Screening for Foot and Mouth Disease Virus Antivirals; Potency, µM (doses to about 57.9 µM), for the others: at the highest dose signal change, negative = less light; AID 1159524, 2015; human cells with a luciferase reporter of 2A StopGo recoding; control for the full effect not named in the record; 410,000 tested, 1.2% active; active = well fitted falling curve with a large enough effect; inconclusive = small, poorly fitted or top-dose-only effect; inactive = no such curve, though single readings can be large or run the other way; tested in HEK293T cells; further: on the % scale 0 is the no-effect control and ±100 the full control effect; nearly all actives have a fitted effect of over 45% in size; luciferase light after 4 h
Lassa entry inh: qHTS for Inhibitors of binding or entry into cells for Lassa Virus | 300,000 tested, 1.2% active | Lassa virus pseudotype entry inhibition, cell reporter; control for the full effect not named in the record | Potency, µM (series often up to 37.9 µM), without a hit: at the highest dose activity change, negative = inhibition, actives largely listed as inhibitors; active means well fitted inhibition curve with a large enough effect; inconclusive means small, poorly fitted or top-dose-only effect, or effect the other way; inactive means flat fitted curve, though single readings scatter; tested in HEK293 cells; further: on the % scale 0 is the no-effect control and ±100 the full control effect; nearly all actives have a fitted effect of over 50% in size; luciferase read-out
RE007 growth inh: qHTS Assay for Inhibitors of the HIV-1 protein Vpr. S. pombe RE007 Vpr strain, BacTiter-Glo ATP luminescence, 24 h; control for the full effect not named in the record. Potency, µM (doses to about 92.2 µM), for inactives: at the top dose activity change, negative = less growth. 360,000 tested, 0.21% active. AID 651644, 2012; active = well fitted falling curve with a large enough effect; inconclusive = small, poorly fitted or top-dose-only effect; inactive = no such curve, though single readings can be large or run the other way;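 further: on the % scale 0 is the no-effect control and ±100 the full control effect; nearly all actives have a fitted effect of over 50% in size; the assay follows cell death caused by Vpr and the record does not say whether a fall means rescue or toxicity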
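Fission yeast strain RE007, carrying one chromosomally integrated HIV-1 vpr copy, was seeded at OD 0.01 in PMG+AL medium with 23 nL pinned compound. After 24 h at 30 °C and 99% humidity, viability was read by BacTiter-Glo luminescence.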
NS1 inh: qHTS Assay for Inhibitors of Influenza NS1 Protein Function | S. cerevisiae slowed by influenza A NS1, growth recovery by OD600 | Potency, µM (series often up to 46.1 µM), for the others: at the top dose activity, positive = more growth | 270,000 tested, 0.4% active | AID 2326, 2010; further: actives are rising curves; nearly all actives have a fitted effect of over 50% in size
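Read-out: OD600 growth recovery of NS1-expressing budding yeast. Cells grown overnight at 30C in -URA glucose medium, washed, resuspended and diluted 1:100 in 2% galactose assay medium, pH 6.0. Same strain lacking NS1 served as positive control.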
SARS PLP yeast: qHTS of Yeast-based Assay for SARS-CoV PLP; S. cerevisiae expressing SARS-CoV PLpro, growth rescue; control for the full effect not named in the record; Potency, µM (top dose mostly 32.9 µM), inactives show at the highest dose activity, positive = growth rescue; 330,000 tested, 0.19% active; AID 485353, 2010; further: 0% is about no effect; nearly all actives have a fitted effect of over 55% in size; growth read by luminescence after 48 h
Cruzain inh noDet: qHTS Assay for Promiscuous and Specific Inhibitors of Cruzain (without detergent); Cruzipain (Trypanosoma cruzi), P25779; purified cruzain, Z-FR-AMC fluorescence, no detergent; Potency, µM, without a hit: max response, negative = inhibition, hits mostly inhibitors; 200,000 tested, 2.3% active; AID 1476, 2009; active means well fitted curve in the direction sought with a large enough effect; inconclusive means small, poorly fitted or top-dose-only effect, or another doubt; inactive means no such curve, though single readings can be large; an effect the other way counts as inactive or inconclusive;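 further: plate controls were enzyme without inhibitor for no effect and buffer without enzyme for full effect; nearly all actives have a fitted effect of over 40% in size; top concentration of the series not given in the record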
Target sequence (P25779 123-467 limits assumed): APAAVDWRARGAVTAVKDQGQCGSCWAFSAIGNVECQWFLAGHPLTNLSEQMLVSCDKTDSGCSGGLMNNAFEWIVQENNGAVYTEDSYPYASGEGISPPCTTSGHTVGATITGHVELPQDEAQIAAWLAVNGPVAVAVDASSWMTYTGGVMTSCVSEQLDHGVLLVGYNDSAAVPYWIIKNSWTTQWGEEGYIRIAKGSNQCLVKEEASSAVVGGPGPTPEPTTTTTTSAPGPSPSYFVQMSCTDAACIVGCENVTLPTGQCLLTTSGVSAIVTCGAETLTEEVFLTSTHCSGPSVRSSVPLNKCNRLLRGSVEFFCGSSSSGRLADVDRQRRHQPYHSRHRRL
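Purified cruzain at 1.5 nM, pre-incubated 15 min with compound at room temperature in 100 mM sodium acetate pH 5.5, 5 mM DTT, 0.00005% Triton X-100. Reaction started with 2 uM Z-FR-AMC; AMC fluorescence increase over 60 s gives rate.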
Cruzain inh Det: qHTS Assay for Promiscuous and Specific Inhibitors of Cruzain (with detergent); purified cruzain, Z-FR-AMC fluorescence, 0.01% Triton; Potency, µM, without a hit: max response, negative = inhibition, hits mostly inhibitors; 200,000 tested, 0.43% active; AID 1478, 2009; Cruzipain (Trypanosoma cruzi), P25779; active means well fitted curve in the direction sought with a large enough effect; inconclusive means small, poorly fitted or top-dose-only effect, or another doubt; inactive means no such curve, though single readings can be large; an effect the other way counts as inactive or inconclusive;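 further: plate controls were neutral wells for no effect and buffer without enzyme for full effect; nearly all actives have a fitted effect of over 40% in size; top concentration of the series not given in the record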
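In this qHTS format, compounds are incubated with 1.5 nM cruzain for 15 min at room temperature before 2 uM Z-FR-AMC is added. Release of AMC is followed at 360/450 nm, and progress is taken as the 60 s fluorescence difference.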
The depositor's hits bear a star; ? = inconclusive; / = not tested or not shown; & = joins results of further samples; [ ] = dose if it differs, or a comment. Unless noted, the call rests on the fitted dose curve; in most records, active means well fitted rising curve with a large enough effect; inconclusive means small, poorly fitted or top-dose-only effect; inactive means no such curve, though single readings can be large or run the other way. Potency means the concentration at half of the fitted maximal effect. Not a hit list (roughly 4.6% active in at least one column).

SMILES	MARV entry inh	2A StopGo	Lassa entry inh	RE007 growth inh	NS1 inh	SARS PLP yeast	Cruzain inh noDet	Cruzain inh Det
Cc1cccnc1CN1CCN(Cc2nc(C(c3ccccc3)c3ccccc3)no2)CC1	/	-30%	/	-3%	-4%	-1%	/	/
C=C(C)CSc1nc2c(c(=O)[nH]c(=O)n2C)n1CCC(C)C	-5%	?	/	1%	-9%	-8%	-2%	7.3%
Cc1nn(Cc2ccccc2)c(Cl)c1C(=O)NC1CCCc2ccccc21 (stereo not drawn)	?	?	?	15%	4%	?	3%	-4.2%
O=C(Nc1nnc(Cc2ccccc2)s1)Nc1ccccc1F	/	41%[activator]	/	-5%	18%	?	/	/
COc1ccc(C(=O)N/N=C(\C)CC(=O)Nc2cccc(C(F)(F)F)c2)cc1	?	-7%	-5%	4%	-2%	-3%	/	/
O=C(Nc1ccc2nc(SCCOc3ccccc3Cl)sc2c1)c1ccc2c(c1)OCO2	-2%[46.1 µM]	?	-9%[46.1 µM]	/	/	/	?	-2.9%
COc1ccc(C2C3=C(CC(c4ccco4)CC3=O)Nc3ccccc3N2C(C)=O)cc1 (stereo not drawn)	11%[46.1 µM]	29%	1%	9%	-31%	0%	-17%	-2.0%
CCCN1CCC2(CC1)C(C#N)=C(N)Oc1c2sc2nc(C)cc(C)c12	9%[46.1 µM]	-6%	18%	-4%	6%	-3%	-22%	-9.2%
O=C(COC(=O)c1ccccc1)Nc1ccccc1N1CCOCC1	8%	?	3%	2%	-6%	-5%	3%	-2.2%
Cc1cc2cc(CCNC(=O)c3ccc(S(=O)(=O)N4CCOCC4)cc3)c(=O)[nH]c2cc1C	-23%[46.1 µM]	?	-24%	4%	-13%	-7%	?	-3.8%
O=C(Nc1ccccc1Br)C1CC(=O)N(c2ccc3c4c(cccc24)CC3)C1 (stereo not drawn)	10µM*	-3%	?	0%	-3%	-1%	15%	-3.3%
CCCS(=O)(=O)N1CCCC(C(=O)N2CCN(C(=O)OCC)CC2)C1 (stereo not drawn)	-1%	3%	2%	-8%	2%	0%	1%	3.4%
CCc1nnc(SCc2nc(-c3ccccc3Cl)oc2C)c2cc3sc(C)cc3n12	/	-12%	?	/	/	/	-12%	-3.0%
COc1c(C)cc(C(=O)C2CCCN(C(=O)c3snnc3C)C2)cc1C (stereo not drawn)	2%[46.1 µM]	-9%	6%	5%	-8%	-1%	/	/
COc1cc(C)cc2oc(=O)c(CC(=O)N3CCN(C(=O)C4COc5ccccc5O4)CC3)c(C)c12 (stereo not drawn)	/	-20%	/	-11%	1%	-5%	/	/
COc1ccccc1N(CC(=O)NC1CCCC1)C(=O)c1cnn(C(C)C)c1	-18%	-10%	15%	-18%	-4%	8%	-5%	-0.4%
Clc1ccccc1-c1nc(-c2ccncc2)no1	?	17%&27%	-3%[46.1 µM]	?	-13%&-4%&-34%	-5%&-2%	-7%	-3.9%
CCN(CC)c1ccc(NC(=O)c2nc3nc(C)cc(C(F)F)n3n2)cc1	/	-9%	/	-10%	?	?	-12%	-4.7%
COc1ccc(C(=O)N/N=C(\C)CC(=O)Nc2ccc(N(C)C)cc2)c(OC)c1	-17%	12%	12%	-2%	-16%	5%	/	/
COc1ccc(C(=O)CC(c2ccccc2)C2C(=O)CCCC2=O)cc1 (stereo not drawn)	4%	/	18%	15%	1%	9%	-6%	-11%
CC1=CC(C)(C)n2c(O)c(N=NC(N)=S)c3cc(C)cc1c32	14%	-24%	14%	7%	13%	15%	?	-17%
Cc1ccc(N(C(=O)c2cccc(C)c2)S(=O)(=O)c2ccc(Cl)cc2)cc1	/	6%	?	/	/	/	?	-3.2%
CCOC(=O)c1[nH]c(C)c(CCC(=O)NC(C)c2ccccc2)c1C (stereo not drawn)	/	-4%	-6%[46.1 µM]	/	/	/	-8%	2.7%
C=CCn1cc(/C=N/N2C(=O)C3C4C=CC(C4)C3C2=O)c2ccccc21 (stereo not drawn)	/	14%	/	2%	4%	0%	/	/
CCc1noc(C)c1C(=O)Nc1nc2ccc(S(C)(=O)=O)cc2s1	-8%	36%[activator]	-5%	-27%	/	0%	/	/
O=C1NC(=O)c2cc(NC(=O)C3CCCO3)ccc21 (stereo not drawn)	-10%	8%	?	11%	7%	0%	12%	-4.7%
COc1ccc(C(=O)NCc2ccc3c(c2)CCN3C(=O)c2cccc(C)c2)cc1OC	/	-3%	?	/	/	/	2%	3.8%
CC(=O)Cc1nsc(NC(=O)c2ccc(-c3ccc(Cl)c(C(F)(F)F)c3)o2)n1	7%	-4%	0%	7%	5%	-7%	2%	-8.2%
N#C/C(=C\c1ccc(OCc2ccc(Cl)cc2)cc1)C(=O)Nc1cccc(C(=O)O)c1	-19%	13%	?	3%	-40%	-8%	/	/
CC1=NN2C(=N)/C(=C\c3cc(C)n(-c4cccc(C)c4)c3C)C(=O)N=C2S1	-27%	-13%	-1%	-2%	13%	0%	/	/
Cc1ccc(NC(=O)CN2C(=O)CSc3ccc(S(=O)(=O)N4CCCCC4)cc32)cc1	?	8%	2%[46.1 µM]	10%	18%	12%	/	/
Fc1ccc(-c2nnc(CSc3nnc(-c4cccs4)o3)o2)cc1	25%	24%	13%	2%	-7%	-5%	-5%	-3.8%
CCCCOc1ccc(C2(C)CC(=O)NC2=O)cc1 (stereo not drawn)	0%	6%	18%	1%	?	6%	2%	-6.2%
CCNc1ccc(-c2nc(-c3ccccn3)no2)cc1[N+](=O)[O-]	5%[46.1 µM]	0%	-1%[46.1 µM]	/	/	/	2%	-2.5%
COC(=O)C1=C(NC(=O)c2cccs2)CCS1	-1%	/	/	/	-24%	3%	-12%	5.8%
COc1ccc(C2CC(=O)c3cnc(NC(=O)c4ccccc4)nc3C2)cc1OC (stereo not drawn)	/	-11%	/	2%	-15%	2%	-5%	-2.1%
Cc1ccc(-c2csc(N(CC3CCCO3)C(=O)c3ccco3)n2)cc1 (stereo not drawn)	?	-17%	?	10%	-15%	-101%	11%	-7.4%
CCOC(=O)/C(C#N)=C/Nc1ccsc1C(=O)OC	-1%[46.1 µM]	-8%	4%[46.1 µM]	9%	-4%	0%	/	/
O=C(NC1CCCC1)C(c1cccs1)N(C(=O)c1ccco1)c1ccc2c(c1)OCCO2 (stereo not drawn)	-19%&-19%	-2%	?	-2%	2%	-2%	7%	-2.8%
COc1cc(OC)c2c(=O)c(OC)c(-c3ccc(OC)c(OC)c3)oc2c1	/	5%&4%	/	-5%	-5%	14%	6%	-3.2%
O=C(Cc1ccc(Cl)cc1)NCCS(=O)(=O)N1CCN(c2ccccc2F)CC1	-9%	-16%	-19%	8%	/	-9%	/	/
COc1ccccc1NC(=O)CSc1nn2c(=O)c(C)nnc2s1	/	-17%	/	-2%	0%	3%	/	/
COc1cc(OC)c(OC)cc1CNC(=O)c1cccc(S(=O)(=O)N2CCc3ccccc3C2)c1	?	11µM*	?	-11%	/	1%	/	/
FC(F)(F)c1ccc(-c2noc(CN3CCCN(C4CCCCC4)CC3)n2)cc1	/	?	/	-3%	0%	-1%	/	/
COc1ccc(Cc2nnc(NS(=O)(=O)c3ccccc3)s2)cc1	?	4%	?	10%	4%	1%	/	/
O=C(CNc1cccc(S(=O)(=O)N2CCCC2)c1)Nc1cccc(C(F)(F)F)c1	?	0%	?	5%	/	-2%	/	/
COc1ccccc1NC(=O)Nc1nc(CC(=O)N2CCN(c3ccc(F)cc3)CC2)cs1	11µM*	?	?	-3%	/	5%	/	/
CC1CN(Cc2nc3c(c(=O)[nH]c(=O)n3C)n2CCN2CCOCC2)CC(C)O1 (stereo not drawn)	0%	18%	15%	8%	-10%	?	-6%	8.3%
CCC(C)n1c(C)cc(C(N)=O)c1C (stereo not drawn)	9%[46.1 µM]	-1%	10%	-2%	/	2%	/	/
COc1cccc(N2CC(C(=O)Nc3nnc(SCc4ccccn4)s3)CC2=O)c1 (stereo not drawn)	-18%	0%	0%	5%	25%	18%	4%	-10%
COC(=O)c1ccc(CSc2nc3c([nH]c4ccccc43)c(=O)n2-c2cc(C)cc(C)c2)o1	/	0%	2%[46.1 µM]	/	/	/	17%	4.8%
Cc1c(NC(=O)C2CCN(S(=O)(=O)c3ccccc3)CC2)c(=O)n(-c2ccccc2)n1C	-30%	-22%	13%	-1%	5%	0%	11%	0.3%
CN(C)c1ccc(CNC(=O)CN(C)S(=O)(=O)c2cccc3cccnc23)cc1	/	-14%	/	-5%	3%	7%	17%	7.7%
COC(=O)C1=CN(c2ccc(OC)cc2)C=C(C(=O)OC)C1c1cccc(F)c1	/	-1%	/	4%	-10%	0%	/	/
Cc1ccc2c(c1)N(C(=O)CCC(=O)NCc1cccc(F)c1)CC(C)O2 (stereo not drawn)	-15%[46.1 µM]	-11%	19%[46.1 µM]	/	/	/	12%	-4.2%
COC(=O)c1c(C)[nH]c(C(=O)CN2C(=O)C3CC=CCC3C2=O)c1C (stereo not drawn)	?	40%[activator]	?	11%	/	-1%	/	/
O=C(NCC(c1cccnc1)N1CCOCC1)Nc1ccccc1 (stereo not drawn)	?	20%	-13%	-10%	-1%	4%	2%	2.3%
COc1ccc(C2N=C(N)Nc3nc4ccccc4n32)c(OC)c1OC (stereo not drawn)	7%[46.1 µM]	-16%	-9%[46.1 µM]	/	/	/	-3%	-3.3%
Cc1nnc(SCc2ccc(C(=O)c3ccc(Cl)cc3)o2)n1-c1ccccc1	?	/	-22%	-1%	-36%	14%	?	-13%

Screening data as filed in PubChem.
